Compound activity: PubChem, Fisher Drug Discovery Resource Center
NPYLR7 agonist: activates Aedes aegypti NPYLR7 receptor; HEK293T NPYLR7/Galpha15, GCaMP6s calcium fluorescence; 270,000 compounds, 0.15% hits; activation, % at 10 µM; in the data active = activation above about 40%;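 note: 0% = vehicle and 100% = reference agonist at the receptor; some compounds past the cut are filed as inactive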
NPYLR7 agonist max-min: further read-out of NPYLR7 agonist, marked with its call; activation, %; measured here: Max-Min RFU normalised activation; some inactives read as strong as hits;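 span of the calcium signal over five minutes; 0% = vehicle and 100% = native peptide agonist; compound fluorescence can raise it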
Active calls of the source: *; & = joins results of further samples.

SMILES	NPYLR7 agonist	NPYLR7 agonist max-min
CCN1C(=O)NC(c2ccccc2[N+](=O)[O-])C(C(=O)OC)=C1C (stereo not drawn)	4	2
Cc1ccc(-n2c(SCC(=O)N3CCCC3=O)nc3ccccc3c2=O)cc1C	10	8
C#CCN(Cc1ccco1)C(=O)NCC(c1ccccc1OC)N1CCCC1 (stereo not drawn)	-2	-3
CC(C)N1CCC(N2CCNCC2)CC1	5	4
COCCN(Cc1c(-c2ccccc2)noc1N1CCCCC1C)C(=O)NC(C)C (stereo not drawn)	-3	9
Cn1c(O)c(C(=O)CC2C=CCC2)c(=O)n(C)c1=O (stereo not drawn)	0	3
CCS(=O)(=O)c1ncc(CN2CCOCC2)n1CCCc1ccccc1	-2	-5
CCc1ccc(Nc2nnc(SCC(=O)NC)s2)cc1	-1	3
CN(C)C(CNC(=O)c1cn[nH]c1-c1ccc(F)cc1)c1ccsc1 (stereo not drawn)	9	5
O=C(NCCC(=O)N1CCN(c2nccs2)CC1)NC12CC3CC(CC(C3)C1)C2	-1	-2
CCc1ccc(C(=O)Nc2cccc(C(N)=O)c2C)cc1	1	1
C=CCN(CC=C)c1cc(Cl)nc(SCc2cccc(C(=O)NCCCCCC)c2)n1	15	12
COCc1cc(C)nc(N/N=C\c2ccc(-c3ccc(Cl)cc3)o2)c1C#N	-25	-27
COc1cc(C)c(Cl)cc1S(=O)(=O)n1nc(C)cc1C	7	16
CCC(C)n1c(Cc2ccc(O)cc2)n[nH]c1=O (stereo not drawn)	-1	-2
NCCSSCCN	7	-6
Cc1cc(Br)cc(Cl)c1OCC(=O)NC(C)c1ccc(-n2cncn2)cc1 (stereo not drawn)	-4	-7
CCCCNC(=O)C1(C)CCN1C(=O)c1cc(OC)ccc1Br (stereo not drawn)	5	1
Cc1cccc(-n2c(CNC(=O)c3ccccc3C(F)(F)F)n[nH]c2=S)c1	-2	-6
CNC(=O)CC(C)N(C)C(=O)c1[nH]c2c(C)ccc(C)c2c1C (stereo not drawn)	-5	-5
Cc1[nH]n(-c2ccccc2)c(=O)c1C=C1C=Nc2ccccc21	-12	-16
COc1ccc(CCN(C)c2cc(C(C)(C)C)nc(SCc3cccc(C(=O)N4CCN(C(C)=O)CC4)c3)n2)cc1OC	10	8
CN1C(=O)C2(CCN(C(=O)C(O)c3ccc(F)cc3)CC2)c2ccccc21 (stereo not drawn)	2	1
COc1ccc(Nc2cc(C)nc(NCCNC(=O)c3cccs3)n2)cc1	20	19
C=CCNc1ccccc1C(=O)N1CCN(CCS(C)(=O)=O)CC1	2	-3

(list continues)
SMILES	NPYLR7 agonist	NPYLR7 agonist max-min
COc1ccc(-c2csc(-n3[nH]c(C)c(N=Nc4ccc([N+](=O)[O-])cc4Br)c3=O)n2)cc1	-4	-9
CC(NCc1ccncc1)c1ccc(Cl)cc1Cl (stereo not drawn)	9	4
COC(=O)[C@H]1C[C@@H](O)CCN1C(=O)CCc1ccc(C)cc1	5	2
O=C(CN1CCSC1=O)NN1C(=O)NC(c2ccccc2)(c2ccccc2)C1=O	2	3
CCN1CCN(C(c2cccnc2)c2c(O)cc(C)n(Cc3ccco3)c2=O)CC1 (stereo not drawn)	9	4
CCCCOc1cc(C=C(C#N)C#N)ccc1OC	0	-1
Cc1ccc(F)cc1NS(=O)(=O)c1cc(Cl)sc1Cl	8	5
O=C(NC1CC1)c1csc(COc2ccc(Cl)cc2)n1	2&43	0&36
CN(Cn1nc(N2CCOCC2)n(C2CC2)c1=S)C1CCCc2ccccc21 (stereo not drawn)	5	13
CCOC(=NCCCOC)NC(=O)c1ccc2c(c1)OCO2	-4	-5
C=CCN(CC(=O)N1CCc2sccc2C1COc1ccc(Cl)cc1)C(=O)c1cccc(F)c1 (stereo not drawn)	-6	-4
O=C(Nc1ccccc1Oc1cccnc1)C1CCCN(CC2CCCCC2)C1 (stereo not drawn)	5	1
Cc1cccc2[nH]nc(-c3ccc(O)cc3)c12	-2	4
CC(=O)c1ccccc1-c1ccc2nc[nH]c2c1	8	7
COCC1(C(=O)N2CCn3cccc3C2c2ccccn2)CCC1 (stereo not drawn)	11	8
Oc1oc(-c2ccc(Br)cc2)nc1C=Nc1ccccc1	0	0
COc1ccccc1-c1cc(C(=O)NCC2(N(C)C)CCSC2)[nH]n1 (stereo not drawn)	-2	-4
O=C(c1ccccc1)c1ccc2c(c1)N=C1CCCC(=O)C1C(c1ccccc1)N2 (stereo not drawn)	2	-3
O=C(Nc1cccc(C(F)(F)F)c1)C1CC=CCC1C(=O)N1CCc2ccccc2C1 (stereo not drawn)	16	11
COc1ccc(-c2nc(O)c3c4ccccc4c(=O)[nH]n23)cc1	-5	-6
CC(C)(CCS(C)(=O)=O)CNC(=O)N1CC2C(C1)C2(C)C (stereo not drawn)	3	2
CNCC(=O)NC(c1cccs1)C1CCCCC1 (stereo not drawn)	6	18
Cc1[nH]n(-c2nc(-c3ccc(Br)cc3)cs2)c(=O)c1N=Nc1cc(Cl)ccc1Cl	-1	6
COc1ccccc1C(=O)N1CCN(c2ccc(Oc3ccccc3)cc2)C(=O)C1C (stereo not drawn)	3	8
Cc1cc2c(cc1C)NC(c1coc3ccccc3c1=O)C1C(=O)CC(C)(C)CC1=N2 (stereo not drawn)	0	-1

For reference, some entries already given.
SMILES	NPYLR7 agonist	NPYLR7 agonist max-min
CCN1C(=O)NC(c2ccccc2[N+](=O)[O-])C(C(=O)OC)=C1C (stereo not drawn)	4	2
Cc1ccc(-n2c(SCC(=O)N3CCCC3=O)nc3ccccc3c2=O)cc1C	10	8
C#CCN(Cc1ccco1)C(=O)NCC(c1ccccc1OC)N1CCCC1 (stereo not drawn)	-2	-3
CC(C)N1CCC(N2CCNCC2)CC1	5	4
COCCN(Cc1c(-c2ccccc2)noc1N1CCCCC1C)C(=O)NC(C)C (stereo not drawn)	-3	9
Cn1c(O)c(C(=O)CC2C=CCC2)c(=O)n(C)c1=O (stereo not drawn)	0	3
CCS(=O)(=O)c1ncc(CN2CCOCC2)n1CCCc1ccccc1	-2	-5
CCc1ccc(Nc2nnc(SCC(=O)NC)s2)cc1	-1	3
CN(C)C(CNC(=O)c1cn[nH]c1-c1ccc(F)cc1)c1ccsc1 (stereo not drawn)	9	5
O=C(NCCC(=O)N1CCN(c2nccs2)CC1)NC12CC3CC(CC(C3)C1)C2	-1	-2
CCc1ccc(C(=O)Nc2cccc(C(N)=O)c2C)cc1	1	1
C=CCN(CC=C)c1cc(Cl)nc(SCc2cccc(C(=O)NCCCCCC)c2)n1	15	12
COCc1cc(C)nc(N/N=C\c2ccc(-c3ccc(Cl)cc3)o2)c1C#N	-25	-27
COc1cc(C)c(Cl)cc1S(=O)(=O)n1nc(C)cc1C	7	16
CCC(C)n1c(Cc2ccc(O)cc2)n[nH]c1=O (stereo not drawn)	-1	-2
NCCSSCCN	7	-6
Cc1cc(Br)cc(Cl)c1OCC(=O)NC(C)c1ccc(-n2cncn2)cc1 (stereo not drawn)	-4	-7
CCCCNC(=O)C1(C)CCN1C(=O)c1cc(OC)ccc1Br (stereo not drawn)	5	1
Cc1cccc(-n2c(CNC(=O)c3ccccc3C(F)(F)F)n[nH]c2=S)c1	-2	-6
CNC(=O)CC(C)N(C)C(=O)c1[nH]c2c(C)ccc(C)c2c1C (stereo not drawn)	-5	-5
Cc1[nH]n(-c2ccccc2)c(=O)c1C=C1C=Nc2ccccc21	-12	-16
COc1ccc(CCN(C)c2cc(C(C)(C)C)nc(SCc3cccc(C(=O)N4CCN(C(C)=O)CC4)c3)n2)cc1OC	10	8
CN1C(=O)C2(CCN(C(=O)C(O)c3ccc(F)cc3)CC2)c2ccccc21 (stereo not drawn)	2	1
COc1ccc(Nc2cc(C)nc(NCCNC(=O)c3cccs3)n2)cc1	20	19
C=CCNc1ccccc1C(=O)N1CCN(CCS(C)(=O)=O)CC1	2	-3
COc1ccc(-c2csc(-n3[nH]c(C)c(N=Nc4ccc([N+](=O)[O-])cc4Br)c3=O)n2)cc1	-4	-9

More structures follow.
SMILES	NPYLR7 agonist	NPYLR7 agonist max-min
N=C1Sc2ccccc2C2=NCCCN12	4	-16
COc1ccc(-c2nn(CN(CC(C)C)C3CCS(=O)(=O)C3)c(=S)n2C)cc1 (stereo not drawn)	5	5
C=CCN(Cc1cccc(OC)c1)C(=O)c1cccc(-c2noc(C)n2)c1	-10	-12
COc1cc(CN(C)CC(=O)NCc2cccc(Cl)c2)ccc1O	-7	-8
CCCc1cncnc1NC1CC(=O)N(CCc2ccc(F)cc2)C1 (stereo not drawn)	2	-1
CC(C)(C)c1ccc(C2CC2C(=O)N/N=C/C=C/c2ccccc2[N+](=O)[O-])cc1 (stereo not drawn)	9	2
NCCc1nc(NCCN2CCCCCC2)c2ccccc2n1	-4	-5
COc1ccc(-c2nn(-c3ccccc3F)cc2CNCCc2nc3ccccc3[nH]2)cc1	10	-2
COc1ccccc1OCCSc1nc2ccccc2n1CC(=O)N1CCOCC1	-2	-5
Cc1ccc(CCC(=O)N2CCC3(CCCNC3)C2)cc1C (stereo not drawn)	1	2
CCOC(=O)CCCC(=O)Nc1sc(C(C)C)cc1C(=O)OCC	1	0
C=CC1CN(Cc2ccc3c(c2)OCO3)C(=O)c2cccnc2O1 (stereo not drawn)	-3	3
CN1C(=O)COCc2cc(-c3cnc4ccccc4c3)ccc21	5	4
O=C(NC1C2CCC(C2)C1CO)C1CC2CCC1C2 (stereo not drawn)	1	-1
COc1ccc2nc(-c3ccc(C)c(NC(=O)c4ccccc4C(F)(F)F)c3)cn2n1	-9	-14
C[N+]1(C)C[C@H](O)[C@H](C(=O)O)C1	-7	-13
O=S(=O)(NCCc1csc2nc(-c3ccccc3)nn12)c1ccc(Br)cc1	-16	-12
Cc1ccccc1COc1cn(CC(=O)N2CCOCC2)c(C)cc1=O	0	-2
Fc1ccccc1N1CCN(c2nc(-c3ccco3)nc3cc(Cl)ccc23)CC1	-3	0
Cc1ccc2c(C)c(C(=O)N3CCC(n4nccc4NC(=O)C(C)(C)C)CC3)oc2c1	1	-1
CC(=O)NCC1CCN(Cc2cc(-c3ccccc3)no2)C1 (stereo not drawn)	3	1
COc1ccc(C(=O)Nc2ccc(NC(=O)c3cccc(C)c3)cc2)cc1[N+](=O)[O-]	0	-6
CN(C)c1nc2sc(C(=O)NCc3ccccc3O)cc2s1	13	13
CN1C[C@H](NC(=O)c2cccc(Oc3ncccn3)c2)C[C@H]1CO	2	1
O=C1OC(c2ccccc2Br)=N/C1=C\c1coc2ccccc2c1=O	0	-5

Next part
SMILES	NPYLR7 agonist	NPYLR7 agonist max-min
CCCN(Cc1nc(C(=O)OC)cs1)C(=O)c1ccc(Cl)c(Cl)c1	3	5
Cc1nc2cc3c(cc2n1CC1(O)CCCCC1)OCCO3	3	0
COc1ccc(NC(=O)CCC2CCN(C(=O)CSC)CC2)c(OC)c1	18	6
COc1cc2nc(C)sc2cc1OC	-2	4
O=[N+]([O-])c1cc(S(=O)(=O)N2CCCCCC2)ccc1NCCCN1CCCC1	6	0
CCCC(O)(CCC)c1ccc(CN(CCN2CCOCC2)Cc2ccc(F)cc2)o1	-10	-9
CCN(CC)C(C(=O)NC(C)C(=O)N1CCOCC1)c1cccc(C(F)(F)F)c1 (stereo not drawn)	0	-1
CCCCCc1ccc(C(=O)Nc2cccc(C3SCC(=O)N3c3ccc(F)cc3)c2)cc1 (stereo not drawn)	5	12
Cc1ccc(C)c(CN2C(=O)C3(c4ccccc42)N(c2ccc(C)c(F)c2)C(=O)CS3(=O)=O)c1 (stereo not drawn)	0	-2
O=c1nc(SCc2ccc(C(F)(F)F)cc2)c2c([nH]1)CCC2	-1	-4
O=C(NCc1ccc(F)cc1)c1coc(CN(Cc2ccc3c(c2)OCO3)Cc2cccc(Cl)c2Cl)n1	17	19
C=C(C)Cn1cc(Oc2ccccc2)c(=O)c(C(=O)OCC)c1	7	2
CCCCN(C)C(=O)c1sc(=O)n(CC(=O)c2ccccc2OC)c1C	9	3
CC(C)Cc1nc2cc(NS(=O)(=O)N(C)C)cc(C(=O)N3CCc4ccccc4C3)c2n1C	7	4
Cc1ccc(NC(=O)N2CCN(C(c3ccccc3)c3ccc(F)cc3)CC2)cc1F (stereo not drawn)	29	15
Clc1ccc(-c2nnn3c2nc(NCc2ccco2)c2ccccc23)cc1	-1	-4
CC(C)c1cnc(SC2CCN(C3CC3)C2=O)n1C(C)C (stereo not drawn)	5	2
COC(=O)c1cccc(NC(=O)Cn2nc3c(N4CCC(C)CC4)nccn3c2=O)c1	2	0
Cc1nc2cc(C(F)(F)F)ccc2n1C1CCN(C(=O)/C=C/c2ccccc2F)CC1	-7	-10
O=C(c1ccccc1)C1CCCN(C(=O)CCn2nnnc2CN2CCOCC2)C1 (stereo not drawn)	10	7
Cc1ncccc1Oc1ncnc(N2CC[C@@H](N3CCOCC3)[C@H](O)C2)c1C	5	2
COc1nc2c(cc1C(=O)NCCC1CN(C)CCO1)CCC2 (stereo not drawn)	-1	-5
COCCN1CCOc2c(O)cc(-c3csc4ccccc34)cc2C1	-6	-13
Cc1ccc(-c2nc(C=Nc3ccc(Cl)cc3Cl)c(O)o2)cc1	0	-7
COc1cccc(Cn2cccc2CN(Cc2ccccc2)C(=O)CN(CC(C)C)S(=O)(=O)c2ccc(Cl)cc2)c1	-1	8

More structures.
SMILES	NPYLR7 agonist	NPYLR7 agonist max-min
CN(Cc1nc(Cc2ccccc2F)no1)Cc1cc2ccccc2s1	7	1
CC1(C(=O)Nc2ccc3c(c2)OCCO3)CCN1C(=O)Cc1cc(F)ccc1F (stereo not drawn)	-3	-2
CCCCCN(CC(=O)N1CCc2sccc2C1c1ccc(Cl)cc1Cl)S(=O)(=O)c1cccc2cccnc12 (stereo not drawn)	6	5
Cc1csc(=NC(=O)c2ccco2)n1Cc1ccc(C(=O)O)cc1	24	17
Cc1nn(Cc2ccccc2)c(C)c1[C@@H]1C=C[C@@H](NC(=O)c2cccnc2)C1	-14	-17
O=C(CCSCc1ccc(C(=O)O)cc1)NC1CCCCC1	-1	-3
COCCNC(=O)[C@@]1(OCc2cccc(C(F)(F)F)c2)CC(OCc2cccc(F)c2F)[C@H](O)[C@H](O)C1 (stereo partly drawn)	4	13
COc1ccc(NC(=O)c2c(-c3ccccc3)noc2C)cc1	-6	-7

This is a subset. The share of hits here may be higher or lower than overall.
